Screens from PubChem BioAssay.
Autofluor counter: compound fluorescence in toxin protease inhibitor counterscreen. compound autofluorescence counterscreen, microsphere flow cytometry; hits give high values. fluorescence intensity (no concentration beside the values). actives 3.1% (n = 360,000). AID 624483;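 active = at least 3 SD above the mean of all compounds, about 16000 in these data; inconclusive = too few beads counted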;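 note: 100 nL of 1 mM stock went into each well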
BJeLR lethal: kills HRASV12-expressing BJeLR cells; BJeLR (HRASV12) viability, CellTiter-Glo ATP luminescence, 48 h; reference of the scale not given here; inhibition, % (no concentration beside the values); actives 0.17% (n = 300,000);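 active = replicate mean above 50%; inconclusive = above 50% but judged a plate artefact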;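 note: 50 nL library stock added to about 25 µL; numbers are from one replicate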
PrP UTR inh: inhibition of PrP 5' UTR reporter expression. cell-based PrP 5' UTR mRNA reporter, plate reader. inhibition, % (concentration not given with the values). actives 0.35% (n = 340,000);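 active = every replicate at 50% or more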;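 note: 0 = median of the neutral control wells; tested in H4 reporter cells; numbers are from one replicate; inactives centre near -14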
Mtb hypoxia rep: inhibitors of hypoxia-regulated fluorescent reporter in Mycobacterium tuberculosis | actives 0.1% (n = 300,000) | M. tuberculosis hypoxia-regulated fluorescent reporter, fluorescence | AID 1159583 | fluorescence inhibition, % (concentration not given with the values);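 active = 35 to 45% if threefold the growth effect, above 45% if 1.5-fold the growth effect; inactive = the rest, general growth blockers included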;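 note: wells of about 50 µL received 100 nL stock; 0% = vehicle wells and 100% = reference inhibitor wells; whole bacteria with a GFP reporter of the hypoxia response; strong numbers were not always called active; many hits fall short of the cut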
Sa RN4220 lethal: S. aureus RN4220 growth inhibition | OD600, 16 h | inhibition, % (concentration not given with the values) | AID 1259311 | actives 0.33% (n = 330,000);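 active = z-score of -3 or lower and OD600 up to 0.18 on both plates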;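 note: plate controls were untreated cells for no effect and reference antibiotic for full effect; stock transfer was 100 nL into about 80 µL; one replicate is shown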
ugtP null kill: growth inhibition of S. aureus ugtP deletion strain; S. aureus RN4220 ugtP deletion, OD600 growth, 16 h; some inactives read as strong as hits; growth inhibition, % (concentration not given with the values); actives 0.54% (n = 330,000);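 active = z-score under -3 and OD600 up to 0.15 on both plates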;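 note: plate controls were untreated wells for no effect and antibiotic for full effect; wells of about 80 µL received 100 nL stock; the first replicate is given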
Mtb hypoxia rep growth: recorded beside Mtb hypoxia rep, whose call it bears; growth inhibition, %; measured here: M. tuberculosis growth (absorbance);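 0% = vehicle and 100% = reference antibiotic; read after six days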
An asterisk follows results filed as active.

How did CCOc1ccc2c(c1)C(N(CCN1CCOCC1)C(=S)Nc1ccccc1OC)CC(C)(C)O2 (stereo not drawn) do in these assays?
Autofluor counter: 4320; BJeLR lethal: 8.9; PrP UTR inh: -32.1; Mtb hypoxia rep: -15.2; Sa RN4220 lethal: -0.8; ugtP null kill: -6.4; Mtb hypoxia rep growth: -0.7

What do the screens show for `CCOC(=O)CS(=O)(=O)c1nc(-c2ccccc2)cc(C(F)(F)F)n1`?
Autofluor counter: 2915; BJeLR lethal: 26.6; PrP UTR inh: 0.6; Sa RN4220 lethal: 10.0; ugtP null kill: 0.8

Results for CC(=O)N1CCCN(C(=O)c2ccc3nc(Cc4ccccc4F)oc3c2)CC1 ?
Autofluor counter: 6286; BJeLR lethal: -9.9; PrP UTR inh: -29.5; Mtb hypoxia rep: 11.0; Sa RN4220 lethal: 0.1; ugtP null kill: 1.3; Mtb hypoxia rep growth: -17.0

How did COc1cccc(NC(=S)N(CCN(C)C)C(C)c2cccnc2)c1 (stereo not drawn) do in these assays?
Autofluor counter: 4119; BJeLR lethal: -2.2; PrP UTR inh: -16.3; Mtb hypoxia rep: 7.4; Sa RN4220 lethal: 1.0; ugtP null kill: 15.5; Mtb hypoxia rep growth: -3.7

Results for COc1ccc(S(=O)(=O)N2c3ccc(F)cc3CCC2C)cc1 (stereo not drawn) ?
Autofluor counter: 3637; BJeLR lethal: 61.5*; PrP UTR inh: 49.7; Mtb hypoxia rep: 7.5; Sa RN4220 lethal: 8.1; ugtP null kill: 13.4; Mtb hypoxia rep growth: 10.2

How did C#CCOCCOCCOCCNc1nc(N2CCOCC2)nc(N2CCN(C(=O)CCCCCCCCCCNC(=O)C(C(C)O)n3cc(C)nn3)CC2)n1 (stereo not drawn) do in these assays?
Mtb hypoxia rep: 4.6; Sa RN4220 lethal: 6.0; ugtP null kill: -5.4; Mtb hypoxia rep growth: 13.9

What do the screens show for `S=c1[nH]nc(C2CCCCC2)n1N=Cc1ccccc1Br`?
Mtb hypoxia rep: 0.3; Sa RN4220 lethal: 26.4; ugtP null kill: 9.4; Mtb hypoxia rep growth: -1.5

Results for Cc1cc(C)cc(NC(=O)CN2CCc3cc4c(cc3C2C)OCCCO4)c1 (stereo not drawn) ?
Autofluor counter: 6612; BJeLR lethal: -3.7; PrP UTR inh: 5.4; Mtb hypoxia rep: -1.7; Sa RN4220 lethal: 1.9; ugtP null kill: 2.7; Mtb hypoxia rep growth: -3.6

Results for Cc1cccc(N(C(=O)CNC(=O)c2ccco2)C(C(=O)NC2CCCC2)c2ccncc2)c1C (stereo not drawn) ?
Autofluor counter: 5739; BJeLR lethal: -3.1; PrP UTR inh: -24.7; Mtb hypoxia rep: -8.5; Sa RN4220 lethal: 2.8; ugtP null kill: 3.6; Mtb hypoxia rep growth: 7.6

How did Fc1ccc(NC(=S)Nc2cccc3ccccc23)cc1 do in these assays?
Autofluor counter: 3742; BJeLR lethal: 1.9; PrP UTR inh: -43.5; Mtb hypoxia rep: -1.4; Sa RN4220 lethal: -1.0; ugtP null kill: -1.5; Mtb hypoxia rep growth: -4.5

What do the screens show for `COc1cc(-c2noc(CCCC(=O)NCc3ccccc3)n2)cc(OC)c1OC`?
Autofluor counter: 8235; BJeLR lethal: 15.4; PrP UTR inh: -17.3; Mtb hypoxia rep: 5.6; Sa RN4220 lethal: 0.6; ugtP null kill: 11.9; Mtb hypoxia rep growth: 5.0

Results for O=c1[nH]c(=O)n(CCOc2ccc(Cl)cc2)cc1Br ?
Autofluor counter: 2472; BJeLR lethal: 5.2; PrP UTR inh: -13.7; Sa RN4220 lethal: 1.3; ugtP null kill: 0.8

How did O=C1/C(=C/Nc2cccc([N+](=O)[O-])c2)CCc2ccccc21 do in these assays?
Autofluor counter: 8679; BJeLR lethal: -8.8; PrP UTR inh: -76.8

What do the screens show for `O=C1NC(=O)N(Cc2ccccc2)C(=O)/C1=C/C=C/c1ccco1`?
Autofluor counter: 4668; BJeLR lethal: 34.1; PrP UTR inh: -21.9; Mtb hypoxia rep: -4.9; Sa RN4220 lethal: 3.4; ugtP null kill: -2.8; Mtb hypoxia rep growth: -2.6

How did Cn1c(=O)n(CC(=O)N2CCC3(CC2)OCCO3)c(=O)c2ccccc21 do in these assays?
Autofluor counter: 2120; BJeLR lethal: -0.1; PrP UTR inh: 4.5; Sa RN4220 lethal: 1.9; ugtP null kill: -1.1

How did CC(=O)c1c(C)[nH]c(C(=O)OCc2nc3ccsc3c(=O)[nH]2)c1C do in these assays?
BJeLR lethal: -6.7; PrP UTR inh: -37.6; Mtb hypoxia rep: -10.9; Sa RN4220 lethal: 4.4; ugtP null kill: -24.1; Mtb hypoxia rep growth: 8.8

Results for CCOc1ccc(C2C(C(=O)c3cccs3)=C(O)C(=O)N2Cc2cccnc2)cc1OC (stereo not drawn) ?
Autofluor counter: 4034; BJeLR lethal: 3.7; PrP UTR inh: -19.5; Mtb hypoxia rep: 3.0; Sa RN4220 lethal: -1.3; ugtP null kill: 7.5; Mtb hypoxia rep growth: 14.7

Results for Cc1cccc(Nc2nc(-c3ccncc3)cs2)c1 ?
Autofluor counter: 4756; BJeLR lethal: 4.8; PrP UTR inh: -66.7; Mtb hypoxia rep: 11.6; Sa RN4220 lethal: 1.0; ugtP null kill: -11.4; Mtb hypoxia rep growth: -4.4

What do the screens show for `Cc1cccc(C(=O)OCC(=O)N(CC(C)C)c2c(N)n(Cc3ccccc3)c(=O)[nH]c2=O)c1C`?
Autofluor counter: 4813; PrP UTR inh: 6.4; Mtb hypoxia rep: -4.1; Sa RN4220 lethal: -3.6; ugtP null kill: -4.4; Mtb hypoxia rep growth: -2.5

How did COc1ccc(-n2nc([N+](=O)[O-])c(=NCc3ccc4c(c3)OCO4)n2O)cc1 do in these assays?
Autofluor counter: 8753; BJeLR lethal: 11.9; PrP UTR inh: -35.5; Mtb hypoxia rep: 7.8; Sa RN4220 lethal: 8.4; ugtP null kill: 5.0; Mtb hypoxia rep growth: -2.6

How did COc1ccc(C(=O)OC(C)C(=O)NC2CCCc3ccccc32)cc1OC (stereo not drawn) do in these assays?
Autofluor counter: 2861; PrP UTR inh: -11.4; Mtb hypoxia rep: 6.9; Sa RN4220 lethal: 5.2; ugtP null kill: 6.4; Mtb hypoxia rep growth: 2.5

What do the screens show for `Cc1cccc(-c2c3c(=O)n(C)c(=O)n(C)c3c3cccnn23)c1`?
Autofluor counter: 9561; BJeLR lethal: -7.1; PrP UTR inh: -3.4; Mtb hypoxia rep: -69.5; Sa RN4220 lethal: 4.0; ugtP null kill: 2.7; Mtb hypoxia rep growth: -17.9

Results for S=C(NCC1CCCO1)N1CCN(c2cccc(Cl)c2)CC1 (stereo not drawn) ?
Autofluor counter: 3449; BJeLR lethal: 3.9; PrP UTR inh: -1.0; Mtb hypoxia rep: 9.7; Sa RN4220 lethal: 0.8; ugtP null kill: 7.9; Mtb hypoxia rep growth: 4.6

How did Cc1ccc(SCC2(O)CCN(C(=O)c3ccc(Cl)cc3)CC2)cc1 do in these assays?
Autofluor counter: 2722; BJeLR lethal: 2.6; PrP UTR inh: -10.6; Sa RN4220 lethal: -5.9; ugtP null kill: 9.4

How did CC(/C=N/NC(=O)Cc1cc(=O)[nH][nH]1)=C\c1ccccc1 do in these assays?
Autofluor counter: 2256; BJeLR lethal: 1.1; PrP UTR inh: -6.9

How did CSCCC(=O)N1CCC(n2nccc2NC(=O)c2ccc3c(c2)OCO3)CC1 do in these assays?
Autofluor counter: 5725; BJeLR lethal: -2.1; PrP UTR inh: -41.0; Mtb hypoxia rep: 2.1; Sa RN4220 lethal: 0.0; ugtP null kill: -3.0; Mtb hypoxia rep growth: 6.9

How did O=C(Nc1ccc([N+](=O)[O-])cc1)C1(c2ccccc2)CCOCC1 do in these assays?
Autofluor counter: 2232; BJeLR lethal: 16.5; PrP UTR inh: -3.8; Mtb hypoxia rep: 11.1; Sa RN4220 lethal: 4.2; ugtP null kill: 2.3; Mtb hypoxia rep growth: 2.6

What do the screens show for `OC(CCCN1CCC(O)(c2ccc(Cl)cc2)CC1)c1ccc(F)cc1` (stereo not drawn)?
Autofluor counter: 5840; BJeLR lethal: 5.4; PrP UTR inh: 2.1; Mtb hypoxia rep: 5.5; Sa RN4220 lethal: 3.3; ugtP null kill: -2.5; Mtb hypoxia rep growth: 0.3

Results for CCS(=O)(=O)N1CCN(CC2CC3C=CC2C3)CC1 (stereo not drawn) ?
Autofluor counter: 6837; BJeLR lethal: -15.2; PrP UTR inh: -4.1; Mtb hypoxia rep: 7.1; Sa RN4220 lethal: 7.7; ugtP null kill: 12.7; Mtb hypoxia rep growth: 2.2

Results for COc1ccc2cc(C3=CC(=O)CC(c4ccc5c(c4)OCO5)C3)ccc2c1 (stereo not drawn) ?
Mtb hypoxia rep: 9.3; Sa RN4220 lethal: -0.7; ugtP null kill: 2.6; Mtb hypoxia rep growth: 9.9

What do the screens show for `COc1ccc(NC(=O)c2ccc(-c3ccccc3C(F)(F)F)o2)cc1`?
Autofluor counter: 4050; BJeLR lethal: 2.2; PrP UTR inh: -18.3; Mtb hypoxia rep: 6.0; Sa RN4220 lethal: 7.2; ugtP null kill: 8.0; Mtb hypoxia rep growth: 3.1

What do the screens show for `O=C(CNC(=O)c1cccs1)NCC(=O)OCC(=O)c1ccc([N+](=O)[O-])cc1`?
Autofluor counter: 4452; BJeLR lethal: -6.6; PrP UTR inh: -7.9; Mtb hypoxia rep: 3.4; Sa RN4220 lethal: 4.4; ugtP null kill: 2.4; Mtb hypoxia rep growth: -2.5

Results for Cc1nn(-c2ccccc2)c(C)c1NC(=O)COC(=O)c1ccc(NC(=O)CC#N)cc1 ?
Autofluor counter: 5657; BJeLR lethal: 3.5; PrP UTR inh: -6.4; Mtb hypoxia rep: 10.2; Sa RN4220 lethal: 1.8; ugtP null kill: -1.4; Mtb hypoxia rep growth: 1.5

How did C=CCOc1c(Br)cc(C=NNC(N)=O)cc1OC do in these assays?
Mtb hypoxia rep: 9.5; Sa RN4220 lethal: 8.0; ugtP null kill: -1.3; Mtb hypoxia rep growth: 2.9

How did CN(C)CCCNC(CC(=O)Nc1cccc([N+](=O)[O-])c1)C(=O)O (stereo not drawn) do in these assays?
Autofluor counter: 9619; BJeLR lethal: 0.6; PrP UTR inh: -0.4; Mtb hypoxia rep: -1.0; Sa RN4220 lethal: 3.7; ugtP null kill: -1.5; Mtb hypoxia rep growth: -1.7

What do the screens show for `O=C(NN=Cc1cc([N+](=O)[O-])ccc1O)c1ccncc1`?
Mtb hypoxia rep: 14.0; Sa RN4220 lethal: 86.1*; ugtP null kill: 75.0; Mtb hypoxia rep growth: 7.8

What do the screens show for `O=C(CSc1nnc(-c2ccccc2)o1)NC(=O)Cc1ccccc1`?
Autofluor counter: 6494; PrP UTR inh: -16.9; Mtb hypoxia rep: 1.2; Sa RN4220 lethal: 2.8; ugtP null kill: 1.0; Mtb hypoxia rep growth: -6.0

How did COc1ccc(CNC(=O)CN(C(=O)c2csnn2)c2cccc3c2CCCC3)cc1 do in these assays?
Autofluor counter: 6425; BJeLR lethal: -3.5; PrP UTR inh: 3.4; Mtb hypoxia rep: -9.7; Sa RN4220 lethal: -0.4; ugtP null kill: -5.8; Mtb hypoxia rep growth: 0.1

What do the screens show for `CC(C)CNC(=O)C1CCN(CC2CCCCC2)CC1`?
Autofluor counter: 3520; BJeLR lethal: -18.6; PrP UTR inh: -13.0; Mtb hypoxia rep: -0.4; Sa RN4220 lethal: 2.7; ugtP null kill: 15.8; Mtb hypoxia rep growth: -3.0

What do the screens show for `O=C(COc1cccc(C(F)(F)F)c1)Nc1ccccc1N1CCCCC1`?
Autofluor counter: inconclusive; BJeLR lethal: -2.8; PrP UTR inh: -7.8; Mtb hypoxia rep: 4.3; Sa RN4220 lethal: -0.4; ugtP null kill: 5.5; Mtb hypoxia rep growth: 1.0

What do the screens show for `CN(Cc1cn[nH]c1-c1ccc2c(c1)OCO2)C1CCOCC1`?
Autofluor counter: 4841; BJeLR lethal: -2.0; PrP UTR inh: -11.6; Mtb hypoxia rep: -0.9; Sa RN4220 lethal: 2.2; ugtP null kill: 10.3; Mtb hypoxia rep growth: -5.0
